Screens (PubChem BioAssay)
PrP UTR inh: suppresses PrP 5' UTR mRNA reporter expression; cell-based PrP 5' UTR mRNA reporter, plate reader; 340,000 compounds, 0.35% hits; inhibition, % (concentration not given with the values);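 active means every replicate at 50% or more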;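 further: 0 = median of the neutral control wells; tested in H4 reporter cells; numbers are from one replicate; inactives centre near -14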
Autofluor counter: counter-screen for toxin protease inhibitors: compound fluorescence; 360,000 compounds, 3.1% hits; fluorescence intensity (concentration not given with the values); compound autofluorescence counterscreen, microsphere flow cytometry; stronger effect = higher value;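 active means at least 3 SD above the mean of all compounds, about 16000 in these data; inconclusive means too few beads counted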;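 further: 100 nL of 1 mM stock went into each well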
Sa ugtP lethal: kills S. aureus RN4220 lacking UgtP | 330,000 compounds, 0.54% hits | S. aureus RN4220 ugtP deletion, OD600 growth, 16 h; some inactives read as strong as hits | AID 1259309 | growth inhibition, % (no concentration beside the values);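 active means z-score under -3 and OD600 up to 0.15 on both plates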;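 further: plate controls were untreated wells for no effect and antibiotic for full effect; wells of about 80 µL received 100 nL stock; the first replicate is given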
BJeLR viability: BJeLR cell viability loss; BJeLR (HRASV12) viability, CellTiter-Glo ATP luminescence, 48 h; reference of the scale not given here; 300,000 compounds, 0.17% hits; inhibition, % (concentration not given with the values);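 active means replicate mean above 50%; inconclusive means above 50% but judged a plate artefact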;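 further: 50 nL library stock added to about 25 µL; numbers are from one replicate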
RN4220 kill: kills Staphylococcus aureus RN4220; S. aureus RN4220 growth, OD600, 16 h; inhibition, % (no concentration beside the values); 330,000 compounds, 0.33% hits; AID 1259311;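 active means z-score of -3 or lower and OD600 up to 0.18 on both plates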;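 further: plate controls were untreated cells for no effect and reference antibiotic for full effect; stock transfer was 100 nL into about 80 µL; one replicate is shown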
Mtb hypoxia rep: Mtb hypoxia fluorescent reporter inhibition; M. tuberculosis hypoxia-regulated fluorescent reporter, fluorescence; fluorescence inhibition, % (test concentration not listed); 300,000 compounds, 0.1% hits; AID 1159583;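 active means 35 to 45% if threefold the growth effect, above 45% if 1.5-fold the growth effect; inactive means the rest, general growth blockers included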;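 further: wells of about 50 µL received 100 nL stock; 0% = vehicle wells and 100% = reference inhibitor wells; whole bacteria with a GFP reporter of the hypoxia response; strong numbers were not always called active; many hits fall short of the cut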
Mtb hypoxia rep growth: also measured in Mtb hypoxia rep; calls as there; growth inhibition, %; measured here: M. tuberculosis growth (absorbance);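 0% = vehicle and 100% = reference antibiotic; read after six days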
The depositor's hits bear a star. Compounds as they come. About 4% of those tested had a hit in this group.

`O=C(CN1C(=O)C2CC=C(Cl)CC2C1=O)Nc1ccc(C(=O)O)cc1` (configuration not stated) gave PrP UTR inh -18, Autofluor counter 15911, Sa ugtP lethal 0, BJeLR viability 4, RN4220 kill -0.6, Mtb hypoxia rep 6 and Mtb hypoxia rep growth 5.
`CCOC(=O)c1nnn(-c2nonc2-n2cccc2)c1CN1CCC(C(=O)OCC)CC1` gave Autofluor counter 10850, Sa ugtP lethal 15, BJeLR viability 0, RN4220 kill 5.2, Mtb hypoxia rep 1 and Mtb hypoxia rep growth 2.
`O=C(Nc1nc2n(n1)C(c1ccccc1)C=C(c1ccccc1)N2)c1ccco1` (configuration not stated) gave PrP UTR inh -57, Autofluor counter 3176, Sa ugtP lethal -4, BJeLR viability -5, RN4220 kill -15, Mtb hypoxia rep 19 and Mtb hypoxia rep growth 14.
O=C(NN=Cc1ccccn1)c1cc(Br)ccc1O was read as Sa ugtP lethal -4, RN4220 kill 5.6, Mtb hypoxia rep 7 and Mtb hypoxia rep growth 3.
`Cc1ccc(C#N)c(SCc2cc3c(cc2Cl)OCO3)n1` gave PrP UTR inh 3, Autofluor counter 8362, Sa ugtP lethal 1, BJeLR viability -4, RN4220 kill -0.1, Mtb hypoxia rep 11 and Mtb hypoxia rep growth 1.
For CC(=O)C(=Cc1cc(C)n(-c2ccccc2)c1C)C(C)=O the results were PrP UTR inh -20, Autofluor counter 2487, Sa ugtP lethal 0, BJeLR viability -5, RN4220 kill 3.1, Mtb hypoxia rep 11 and Mtb hypoxia rep growth 5.
Screening O=C1Cc2cc(S(=O)(=O)N3CCCCC3)ccc2N1 returned PrP UTR inh -15, Autofluor counter 5615, Sa ugtP lethal -5, BJeLR viability -7, RN4220 kill -15, Mtb hypoxia rep 11 and Mtb hypoxia rep growth 9.
Screening CCOc1cc(C(=S)N2CCCC2)ccc1OC returned PrP UTR inh -11, Autofluor counter 3437, Sa ugtP lethal 9, BJeLR viability -12, RN4220 kill 8.9, Mtb hypoxia rep 15 and Mtb hypoxia rep growth 6.
O=C(CN1CCCCC1)NC(=O)NCc1ccccc1 was read as PrP UTR inh -21, Autofluor counter 8410, Sa ugtP lethal -1, BJeLR viability 6, RN4220 kill -1.3, Mtb hypoxia rep 7 and Mtb hypoxia rep growth 4.
For N/C(=N\OC(=O)c1ccc(Cl)cc1Cl)c1ccccc1 the results were PrP UTR inh 50, Autofluor counter 11340, Sa ugtP lethal 2, BJeLR viability 5, RN4220 kill 4.7, Mtb hypoxia rep 12 and Mtb hypoxia rep growth 9.
For COc1ccc(OC)c(C(=O)NC(CC(N)=O)c2ccc(NC(C)C)c([N+](=O)[O-])c2)c1 (configuration not stated) the results were PrP UTR inh -16, Autofluor counter 3804, Sa ugtP lethal -9, BJeLR viability -5, RN4220 kill 3.9, Mtb hypoxia rep 14 and Mtb hypoxia rep growth 8.
For Cc1ccc(NC(=O)C(C)Sc2nc(=O)cc(N)n2-c2ccccc2)cc1 (configuration not stated) the results were PrP UTR inh 0, Autofluor counter 3137, Sa ugtP lethal 1, BJeLR viability -1 and RN4220 kill -0.1.
`CC(OC(=O)CCC(=O)c1cccs1)C(=O)Nc1ccccc1[N+](=O)[O-]` (configuration not stated) gave PrP UTR inh -22, Autofluor counter 3699, Sa ugtP lethal -2, BJeLR viability -12, RN4220 kill 4.5, Mtb hypoxia rep 12 and Mtb hypoxia rep growth 8.
`Cc1ccc(/C=N/N2CCN(Cc3ccccc3)CC2)cc1` gave PrP UTR inh -21, Autofluor counter 2047 and BJeLR viability 4.
`COc1ccccc1NC(=O)CSc1nccn1Cc1ccccc1` gave PrP UTR inh -4, Autofluor counter 5791, Sa ugtP lethal 5, BJeLR viability -7, RN4220 kill 3.4, Mtb hypoxia rep 2 and Mtb hypoxia rep growth 9.
CC(=O)c1c(C)[nH]c(C(=O)Nc2ccc(Cl)c(S(=O)(=O)N(C)C)c2)c1C was read as PrP UTR inh -64, Autofluor counter 4789, Sa ugtP lethal -1, BJeLR viability 6, RN4220 kill 1.5, Mtb hypoxia rep -4 and Mtb hypoxia rep growth 3.
`O=C(NC1CC1)c1ccc(CS(=O)c2ccc(Br)cc2)o1` (configuration not stated) gave PrP UTR inh 5, Autofluor counter 5940, Sa ugtP lethal -1, BJeLR viability -11, RN4220 kill 0.9, Mtb hypoxia rep 15 and Mtb hypoxia rep growth 1.
`O=C(C1=C[C@H](c2csc3ccccc23)C[C@H](OCc2ccc(CO)cc2)O1)N1CCN(Cc2ccc3c(c2)OCO3)CC1` gave PrP UTR inh -13, Autofluor counter 3695 and BJeLR viability 15.
For CC(C)(CNC(=O)c1ccc(-c2cccc(C(F)(F)F)c2)o1)N1CCOCC1 the results were PrP UTR inh 2, Autofluor counter 5190, Sa ugtP lethal 3, BJeLR viability -1, RN4220 kill 2.6, Mtb hypoxia rep 5 and Mtb hypoxia rep growth 17.
For N/C(Cc1ccccc1)=N\OC(=O)c1cccc2ccccc12 the results were PrP UTR inh -41, Autofluor counter 2534, Sa ugtP lethal -4, BJeLR viability 1, RN4220 kill -3.9, Mtb hypoxia rep -1 and Mtb hypoxia rep growth -5.
Screening O=C(O)c1cccc(NC(=O)c2cn(-c3ccccc3)nc2-c2cccc(Br)c2)c1 returned PrP UTR inh -9, Autofluor counter 3657, Sa ugtP lethal 18, BJeLR viability 0, RN4220 kill 3.3, Mtb hypoxia rep 5 and Mtb hypoxia rep growth 3.
For Cc1cc(Cl)c(S(=O)(=O)N(C)C)cc1OCC(N)=O the results were PrP UTR inh -11, Autofluor counter 4172, Sa ugtP lethal 2, BJeLR viability -1, RN4220 kill 0.9, Mtb hypoxia rep 7 and Mtb hypoxia rep growth -3.
Screening COc1ccc(C2CC=C(C(=O)O)C(c3ccccc3)N2S(=O)(=O)c2ccc(C)cc2)cc1OC (configuration not stated) returned Sa ugtP lethal 3, RN4220 kill 7.3, Mtb hypoxia rep 18 and Mtb hypoxia rep growth 12.
Screening COc1ccccc1Cn1c(=O)c2ccccc2n2c(Sc3ncnc4sccc34)nnc12 returned PrP UTR inh -12, Autofluor counter inconclusive, Sa ugtP lethal -1, BJeLR viability 2, RN4220 kill 4.6, Mtb hypoxia rep 20 and Mtb hypoxia rep growth 12.
For O=C(O)CCCCCCCCCCP(=O)(c1ccccc1)c1ccccc1 the results were PrP UTR inh -13, Autofluor counter 4359, Sa ugtP lethal 1, BJeLR viability 4, RN4220 kill 5.1, Mtb hypoxia rep 15 and Mtb hypoxia rep growth 8.
Nc1ccccc1S(N)(=O)=O was read as PrP UTR inh -19, Autofluor counter 4936, Sa ugtP lethal 0, RN4220 kill 9.4, Mtb hypoxia rep 14 and Mtb hypoxia rep growth 3.
COc1cc(CCCN2CCNC[C@@H]2C(C)O)cc(OC)c1OC (some centres not stated) was read as PrP UTR inh -19, Autofluor counter 3975, Sa ugtP lethal -9, BJeLR viability -7, RN4220 kill -12, Mtb hypoxia rep 4 and Mtb hypoxia rep growth 8.
CCN(CC)CCNC(=O)c1cc2c(s1)-c1ccccc1SC2 was read as PrP UTR inh 15, Autofluor counter 3211, Sa ugtP lethal -3, BJeLR viability 24, RN4220 kill -4.1, Mtb hypoxia rep 13 and Mtb hypoxia rep growth 0.
Screening O=c1[nH]c(Cc2ccccc2)nc2c1oc1ccccc12 returned PrP UTR inh -13, Autofluor counter 21955*, Sa ugtP lethal -6, BJeLR viability 0, RN4220 kill 3.5, Mtb hypoxia rep -8 and Mtb hypoxia rep growth -29.
O=C(O)Cn1c(-c2ccccn2)nc2ccccc21 was read as PrP UTR inh 2, Autofluor counter 3642, Sa ugtP lethal 0, BJeLR viability -4, RN4220 kill -0.7, Mtb hypoxia rep -1 and Mtb hypoxia rep growth 9.

3 successive records from above, quoted:
Screening COc1ccc(C2CC=C(C(=O)O)C(c3ccccc3)N2S(=O)(=O)c2ccc(C)cc2)cc1OC (configuration not stated) returned Sa ugtP lethal 3, RN4220 kill 7.3, Mtb hypoxia rep 18 and Mtb hypoxia rep growth 12.
Screening COc1ccccc1Cn1c(=O)c2ccccc2n2c(Sc3ncnc4sccc34)nnc12 returned PrP UTR inh -12, Autofluor counter inconclusive, Sa ugtP lethal -1, BJeLR viability 2, RN4220 kill 4.6, Mtb hypoxia rep 20 and Mtb hypoxia rep growth 12.
For O=C(O)CCCCCCCCCCP(=O)(c1ccccc1)c1ccccc1 the results were PrP UTR inh -13, Autofluor counter 4359, Sa ugtP lethal 1, BJeLR viability 4, RN4220 kill 5.1, Mtb hypoxia rep 15 and Mtb hypoxia rep growth 8.

(more compounds)
O=C(CC12CC3CC(CC(C3)C1)C2)N1CCCOC1 was read as PrP UTR inh -22, Autofluor counter 10537, Sa ugtP lethal -6, BJeLR viability -14, RN4220 kill 0.0, Mtb hypoxia rep 11 and Mtb hypoxia rep growth 23.
`CCOc1ccc(S(=O)(=O)N2CCC(C(=O)NCc3ccccn3)CC2)cc1C` gave PrP UTR inh 0, Autofluor counter 4118, Sa ugtP lethal 5, BJeLR viability 15, RN4220 kill -0.6, Mtb hypoxia rep 14 and Mtb hypoxia rep growth 10.
Screening COC(=O)NNC(=O)COc1ccccc1C returned PrP UTR inh -4, Autofluor counter 2437, Sa ugtP lethal 3, BJeLR viability 1, RN4220 kill 3.9, Mtb hypoxia rep 7 and Mtb hypoxia rep growth 3.
COc1ccc(C/C(N)=N/OC(=O)c2cccc([N+](=O)[O-])c2)cc1 was read as PrP UTR inh -16, Autofluor counter 2501, Sa ugtP lethal -3, BJeLR viability -9, RN4220 kill 3.2, Mtb hypoxia rep 5 and Mtb hypoxia rep growth 2.
For CC(OC(=O)C1CC(=O)N(Cc2ccccc2)C1)C(=O)Nc1cccc(C#N)c1 (configuration not stated) the results were PrP UTR inh 5, Autofluor counter 5630, Sa ugtP lethal -1, BJeLR viability -8, RN4220 kill 0.6, Mtb hypoxia rep -3 and Mtb hypoxia rep growth 9.
Cc1ccc(OC(F)F)c(NC(=O)Nc2cccc(C(F)(F)F)c2)c1 was read as PrP UTR inh -8, Autofluor counter 19099*, Sa ugtP lethal 83, BJeLR viability 2, RN4220 kill 50, Mtb hypoxia rep -3 and Mtb hypoxia rep growth 0.
Screening Cc1cc(NC(=O)c2c(Br)c(C)nn2C)no1 returned PrP UTR inh -28, Autofluor counter 2098, Sa ugtP lethal 11, BJeLR viability -7, RN4220 kill 5.7, Mtb hypoxia rep 6 and Mtb hypoxia rep growth 7.
For NS(=O)(=O)c1ccc(NC(=O)CSc2n[nH]c(=O)n2Cc2ccccc2)cc1 the results were PrP UTR inh -18, Autofluor counter 3629, Sa ugtP lethal 17, BJeLR viability 6, RN4220 kill 3.6, Mtb hypoxia rep 6 and Mtb hypoxia rep growth 2.
`CCc1ccc(NC(=O)C(=O)NCC(O)c2ccccc2)cc1` (configuration not stated) gave PrP UTR inh -20, Autofluor counter 2451, Sa ugtP lethal 9, BJeLR viability -14, RN4220 kill -2.1, Mtb hypoxia rep -2 and Mtb hypoxia rep growth -2.
For O=C(Cc1ncc(C(F)(F)F)cc1Cl)Nc1cccc(Br)c1 the results were PrP UTR inh -8, Autofluor counter 15983, Sa ugtP lethal -7, BJeLR viability -2, RN4220 kill -2.2, Mtb hypoxia rep 3 and Mtb hypoxia rep growth 7.
Screening COC(=O)C1=C(c2cc3ccccc3o2)CC2CCC1N2C(=O)NC(C)C (configuration not stated) returned Sa ugtP lethal 4, RN4220 kill 2.5, Mtb hypoxia rep 4 and Mtb hypoxia rep growth 3.
CNc1nc(C)c(C(=O)OCc2ccccc2)s1 was read as PrP UTR inh -43, Autofluor counter 6102, Sa ugtP lethal 2, BJeLR viability 7, RN4220 kill 6.4, Mtb hypoxia rep 13 and Mtb hypoxia rep growth 18.
